CDC25B CDK2 inh = human CDC25B-CDK2/CyclinA binding inhibition; P30305+P24941; HTRF CDC25B-CDK2/CyclinA binding, anti-His/anti-Flag; stronger effect = higher value; actives 0.72% (n = 94,000); z-score (no concentration beside the values);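 note: score is relative to mean and SD of negative controls; strong numbers were not always called active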
HIV TAR-Tat = HIV-1 TAR-Tat binding disruption. actives 0.6% (n = 100,000). AID 1259389. z-score (concentration not given with the values). HIV-1 TAR RNA, Tat peptide displacement FRET; stronger effect = higher value;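 note: score is relative to mean and SD of negative controls; some compounds called inactive have numbers as strong as hits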
The depositor's hits bear a star; . = no result given.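 Rule for the calls: active = z-score from 3 up in half or more of its runs; inactive = the rest.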

1. CC1CCCCC1NC(=O)CCCCn1c(=O)[nH]c2ccsc2c1=O (stereo unspecified)
2. CCCCc1nc(N2CCN(C(=O)c3ccco3)CC2)c(C#N)c2c1COC(C)(C)C2
3. CC(=O)Nc1nc2nc(C)c(Cl)c(C)n2n1
4. COc1ccc(-n2ccn(CC(=O)Nc3ccc(Br)cc3)c2=O)cc1
5. Cc1ccc(C)n1-c1ccccc1N
compound no.,1,2,3,4,5
CDC25B CDK2 inh,-0.5,-0.7,-1,.,-2.24
HIV TAR-Tat,-0.84,0.08,0.63,2.2,-6.31

6. CC1=C(c2ccc(F)cc2)S(=O)(=O)NC1=NC(C)c1ccc2c(c1)OCCO2 (stereo unspecified)
7. Cc1cc(NC(=O)c2oc3c(c2C)-c2[nH]ncc2CC3)ccc1Br
8. COc1ccc(NC(=O)c2ccc([N+](=O)[O-])o2)c(OC)c1
9. O=C1N(CN2CCCCC2)c2ccc(Br)cc2C12OCCO2
10. Cc1cc(Nc2ccc(N3CCN(C(=O)C(C)C)CC3)cc2)n2nc(-c3ccco3)nc2n1
compound no.,6,7,8,9,10
CDC25B CDK2 inh,.,0.92,-3.12,-0.95,-1.12
HIV TAR-Tat,-0.12,-3.24,0.14,.,1.28

11. c1ccc2c(CN3CCCCC3)noc2c1
12. CCOC(=O)Cn1c(=O)oc2cc(S(=O)(=O)N3CC(C)CC(C)C3)ccc21 (stereo unspecified)
13. CCCn1cc(S(=O)(=O)c2ccc(Cl)cc2)c(=O)c2cc(F)c(N3CCOCC3)cc21
14. Cn1c(=O)c2c(-c3cccc(Br)c3)n(-c3cnc4ccccc4c3)cc2n(C)c1=O
15. Cc1ccc(S(=O)(=O)c2cnc3ccccc3c2N2CCC(C)CC2)cc1
compound no.,11,12,13,14,15
CDC25B CDK2 inh,.,0.25,.,1.45,1.86
HIV TAR-Tat,1.6,-2.71,-1.05,0.13,0.65

16. O=C(Nc1ccccc1)C1=C(NCC2CCCO2)c2ccccc2S1(=O)=O (stereo unspecified)
17. O=C(Nc1ccc2c(c1)OCCO2)N1CCN(Cc2ccc3nccnc3c2)CC1
18. O=C(Nc1ccccc1F)Nc1c[nH]c(=O)[nH]c1=O
19. Cn1c(=O)c2sccc2n2c(CCCC(=O)N3CCCC3)nnc12
20. Cc1oc(C(C)(C)C)cc1C(=O)NC1Cc2ccccc2C1
compound no.,16,17,18,19,20
CDC25B CDK2 inh,.,.,.,.,-1.75
HIV TAR-Tat,1.11,0.37,1.04,-2.07,.

21. CCn1c(SCC(=O)c2ccc3c(c2)OCCO3)nnc1-c1ccc2c(c1)OCCCO2
22. COc1ccccc1-n1ccnc(OC)c1=O
23. CC(=O)N1CCC2(CC1)OC(=O)C(C)=C2C(=O)NCCCN1CCCCC1
24. O=C(c1cccs1)n1ccc(-c2ccc3c(c2)CCO3)n1
25. CCc1nc(Oc2ccc(OC)cc2)c2oc3ccccc3c2n1
compound no.,21,22,23,24,25
CDC25B CDK2 inh,.,-1.07,.,-0.48,.
HIV TAR-Tat,4.49,-2.37,0.29,.,0.94

26. COc1cccc(C2N3CCCN2CC3)c1OCc1ccccc1 (stereo unspecified)
27. CC1CCCCC1NC(=O)CCCN1C(=O)CSc2ncccc21 (stereo unspecified)
28. Cc1ccsc1C1CC(=O)NC(SCC(=O)Nc2ccc(Br)cc2)=C1C#N (stereo unspecified)
29. CCOC(=O)N1CCC(Nc2c(N3CCN(c4cccc(Cl)c4)CC3)c(=O)c2=O)CC1
30. CCOC(=O)c1c(CN)c(C)n(C2CC2)c1C
compound no.,26,27,28,29,30
CDC25B CDK2 inh,-1.45,0.07,-0.46,-1.51,-0.27
HIV TAR-Tat,1.24,-0.7,1.99,3.2,.

Reformatted with values under each structure: entries from further up
Below each compound: CDC25B CDK2 inh | HIV TAR-Tat
26. COc1cccc(C2N3CCCN2CC3)c1OCc1ccccc1 (stereo unspecified)
→ -1.45 | 1.24
27. CC1CCCCC1NC(=O)CCCN1C(=O)CSc2ncccc21 (stereo unspecified)
→ 0.07 | -0.7

The results go on.
31. COc1ccc(S(=O)(=O)N2CCCCC2C(=O)O)cc1 (stereo unspecified)
32. O=c1cc(COc2ccc(Cl)cc2)nc2sc(-c3ccco3)nn12
33. CCOc1ccccc1-n1nnc(S(=O)(=O)c2ccc(C)cc2)c1N
34. CCc1nc2ccccc2n1CCOc1ccccc1
35. COc1ccc(-c2cc(=O)c3c(N)nn(-c4nc5ccccc5s4)c3o2)cc1
compound no.,31,32,33,34,35
CDC25B CDK2 inh,-0.53,-0.91,0.33,-0.46,-1.65
HIV TAR-Tat,.,35.7*,4.06,-0.01,0.65

36. CCOC(=O)C1=C(C)NC(C)=C(C(=O)OCC)C1c1ccc([N+](=O)[O-])s1
37. COc1cccc(/C=C/C(=O)O)c1C(C)C
38. Cc1ccc(C(CNC(=O)c2oc3ccc(Cl)cc3c2C)N2CCCC2)o1 (stereo unspecified)
39. CCCN1C(SCC(=O)N2CCC(C)CC2)=NS(=O)(=O)c2ccccc21
40. CC(C)OC(=O)C1C(=O)CC(C)(O)C(C(=O)OC(C)C)C1c1ccc(Cl)cc1 (stereo unspecified)
compound no.,36,37,38,39,40
CDC25B CDK2 inh,-1.27,.,-1.79,.,0.09
HIV TAR-Tat,.,-0.29,1.78,2,0.36

41. Brc1ccc(-c2cnnc(N3CCCC3)n2)cc1
42. Cc1c(C(=O)N2CC(C)CC(C)C2)sc2nc3n(c(=O)c12)CCCCC3 (stereo unspecified)
43. O=S1(=O)N=C(c2ccc(F)cc2)Nc2ccc(S(=O)(=O)N3CCOCC3)cc21
44. CC1CCCN(c2nnc(NC(=O)Nc3ccc(F)cc3)s2)C1 (stereo unspecified)
45. C=CCOC(=O)COc1ccc2c3c(c(=O)oc2c1)CCC3
compound no.,41,42,43,44,45
CDC25B CDK2 inh,-0.34,.,.,-2.4,0.42
HIV TAR-Tat,-4.37,0.88,1.23,2.22,.

46. Cc1c(C(=O)NCCCN2CCCCC2)oc2ccc3c(c12)C(O)CC1(CCCCC1)O3 (stereo unspecified)
47. O=C1c2[nH]nc(-c3ccccc3O)c2C(c2cccc(Cl)c2)N1Cc1ccco1 (stereo unspecified)
48. COc1cc(C)c(C(C)C)cc1S(=O)(=O)N1CCc2ccccc2C1
49. CCC(=O)Nc1nnc(S(=O)(=O)N2CCC(C)CC2)s1
50. COc1ccc(C(N)CCc2ccc(C)o2)cc1 (stereo unspecified)
compound no.,46,47,48,49,50
CDC25B CDK2 inh,.,-0.37,-0.6,1.23,.
HIV TAR-Tat,0.43,2.53,.,1.09,-6.86

51. CCc1ccc2oc(C(=O)N(Cc3ccc(F)cc3)C3CCS(=O)(=O)C3)cc(=O)c2c1 (stereo unspecified)
52. O/N=C1\CCSc2sccc21
53. CC1CCN(c2cc(N(C)CCO)c3noc4c3c2C(=O)c2ccccc2-4)CC1
54. CN(C)S(=O)(=O)c1ccc(NC(=O)CSc2nnc3ccc4ccccc4n23)cc1
55. Cc1ccc(CN2C(=O)C(O)(CC(=O)c3ccncc3)c3cc(Cl)ccc32)cc1 (stereo unspecified)
compound no.,51,52,53,54,55
CDC25B CDK2 inh,-2.06,-0.79,-0.53,-0.14,0.65
HIV TAR-Tat,3.82,.,-3.38,1.24,1.37

56. Fc1cccc(Cl)c1CNCCSc1nnnn1-c1ccccc1
57. CCOC(=O)C1CCCN(c2c(S(=O)(=O)c3ccccc3)cnc3ccccc23)C1 (stereo unspecified)
58. Cc1c(C2CCN(S(=O)(=O)c3cnc[nH]3)CC2)c2ccccc2n1Cc1ccc(F)cc1
59. CCOC(=O)c1sc2nc(C(F)(F)F)nn2c1CSc1nnc(C(F)(F)F)n1C
60. CCCSc1nc2c(c(=O)[nH]1)C(c1cccc(F)c1F)CC(=O)N2 (stereo unspecified)
compound no.,56,57,58,59,60
CDC25B CDK2 inh,-0.88,0.59,.,-1.1,-1.06
HIV TAR-Tat,1.33,0.26,1.14,.,0.92

61. C=CCSc1ncc(Cl)c(C(=O)Nc2nnc(SCC)s2)n1
62. Cn1cnc(S(=O)(=O)N2CCN(Cc3noc4ccccc34)CC2)c1
63. Cc1sc2ncn(CC(=O)N3CCCCCC3)c(=O)c2c1S(=O)(=O)N1CCCCC1
64. CCC(C)[C@H](NS(=O)(=O)c1cccc2ccccc12)C(=O)N[C@H](C=O)Cc1c[nH]c2ccccc12 (stereo partly specified)
65. O=C(Nc1ccn(C2CC(OC(=O)c3ccccc3)C(CO)O2)c(=O)n1)c1ccccc1 (stereo unspecified)
compound no.,61,62,63,64,65
CDC25B CDK2 inh,-0.48,.,0.14,.,-2.52
HIV TAR-Tat,-0.19,2.26,.,0.92,.

A second format for some results above.
#63 Cc1sc2ncn(CC(=O)N3CCCCCC3)c(=O)c2c1S(=O)(=O)N1CCCCC1
  CDC25B CDK2 inh = 0.14; HIV TAR-Tat = .

#64 CCC(C)[C@H](NS(=O)(=O)c1cccc2ccccc12)C(=O)N[C@H](C=O)Cc1c[nH]c2ccccc12 (stereo partly specified)
  CDC25B CDK2 inh = .; HIV TAR-Tat = 0.92

(list continues)
66. O=C(Nc1ccc2c(c1)OCCO2)C1Cc2ccccc2CN1S(=O)(=O)c1ccccc1 (stereo unspecified)
67. O=C(c1ccco1)N(Cc1cccs1)c1ccc(F)cc1
68. O=C(NC1CC1)c1cc(F)cc2c1OCOC2
69. N#Cc1cc2c(nc1SCC(=O)Nc1ccc(F)cc1)CCC2
70. CC1=C(c2ccc(F)cc2)S(=O)(=O)N=C1Nc1cc(F)ccc1F
compound no.,66,67,68,69,70
CDC25B CDK2 inh,.,-1.33,-1.84,-1.86,.
HIV TAR-Tat,-0.14,-0.19,.,0.11,-0.24

71. COCCNC(=O)c1oc2c(c1C)-c1[nH]ncc1CC2
72. COCCN(Cc1ccco1)C(=O)c1c(C)oc2ncnc(N3CCOCC3)c12
73. O=C(CCc1nnc2ccc(N3CCCCC3)nn12)N1CCC(Cc2ccccc2)CC1
74. Cc1nnc(NC(=O)CSc2ccc(-c3cccs3)nn2)s1
75. Cc1cc2nc(-c3cccc(N)c3)oc2cc1C
compound no.,71,72,73,74,75
CDC25B CDK2 inh,-1.89,.,.,.,-2.24
HIV TAR-Tat,0.85,0.15,1.41,0.38,3.43

76. Oc1ccccc1C1OCC2(CO1)COC(c1ccccc1O)OC2 (stereo unspecified)
77. Cc1ccnc(SCCn2c(N3CCOCC3)nc3c2c(=O)[nH]c(=O)n3C)n1
78. Cc1ccc(N2C(=O)N(c3ccc(C)c(C)c3)C3CS(=O)(=O)CC32)cc1 (stereo unspecified)
79. COCCOC(=O)c1c(C)oc2ccc(OCc3cc(C)ccc3C)cc12
80. O=C(Nc1n[nH]c(-c2nc(NC(=O)C(F)(F)F)n[nH]2)n1)C(F)(F)F
compound no.,76,77,78,79,80
CDC25B CDK2 inh,-0.53,0.96,-0.98,-3.44,-2.25
HIV TAR-Tat,.,.,0.8,0.56,.

81. CN1C(=O)Cc2cc(S(=O)(=O)NCc3ccc4c(c3)N(C(=O)c3ccccc3)CC4)ccc21
82. CCOC(=O)c1c(C)oc2nc(C)nc(NCCN(Cc3ccccc3)C(C)C)c12
83. C=CCOC(=O)C1=C(C)NC2=C(C(=O)CCC2)C1c1cc(OC)c(OC)cc1Br (stereo unspecified)
84. FC(F)(F)c1nnc2sc(C3COc4ccccc4O3)nn12 (stereo unspecified)
85. Cc1cc(C)c(C#N)c(SCCS(=O)(=O)Cc2ccc(Cl)cc2)n1
compound no.,81,82,83,84,85
CDC25B CDK2 inh,.,.,-2.8,-0.81,-13.1
HIV TAR-Tat,2.84,0.09,1.61,2.17,.

86. CCOC(=O)N1CCN(C(=O)c2nn(C)c3c2CSc2ccccc2-3)CC1
87. O=C(Nc1ccccc1Cl)N1CC=C(c2c[nH]c3ccccc23)CC1
88. Cc1[nH]c(C)c(S(=O)(=O)N2CCN(c3ccccn3)CC2)c1C(=O)N1CCCC1
89. O=C(Nc1ccc(-c2nc3c(ccc4ccccc43)o2)cc1)c1ccc([N+](=O)[O-])o1
90. COC(=O)c1ccc(NC(=O)CSc2nnc3ccccn23)cc1
compound no.,86,87,88,89,90
CDC25B CDK2 inh,-1.23,-0.78,.,0.06,0.65
HIV TAR-Tat,2.55,-0.24,0.04,-1.51,.

The final four compounds of the section before lead into the next:
87. O=C(Nc1ccccc1Cl)N1CC=C(c2c[nH]c3ccccc23)CC1
88. Cc1[nH]c(C)c(S(=O)(=O)N2CCN(c3ccccn3)CC2)c1C(=O)N1CCCC1
89. O=C(Nc1ccc(-c2nc3c(ccc4ccccc43)o2)cc1)c1ccc([N+](=O)[O-])o1
90. COC(=O)c1ccc(NC(=O)CSc2nnc3ccccn23)cc1
91. CCN(Cc1nc(-c2ccc(C)cc2)no1)S(=O)(=O)c1ccc(Cl)cc1
92. O=[n+]1cc(-c2ccc(Br)cc2)n([O-])c2c1CCC2
93. CCCSC1=C(C#N)C(c2ccc(O)c(OCC)c2)CC(=O)N1 (stereo unspecified)
94. COc1ccc(-c2nnc(SCc3cc(=O)n4c(C)csc4n3)o2)cc1OC
95. COc1ncc(C(=O)NNC(=S)Nc2ccccc2)cc1[N+](=O)[O-]
compound no.,87,88,89,90,91,92,93,94,95
CDC25B CDK2 inh,-0.78,.,0.06,0.65,-0.5,-2.21,-1.05,-1.21,-0.27
HIV TAR-Tat,-0.24,0.04,-1.51,.,0.6,.,-0.28,-0.05,.

96. COc1ccc(OC)c(CNc2ncc(-c3ccc(Cl)cc3)n2C)c1
97. COc1ccc(CCNc2nc(-c3ccc(O)cc3)cs2)cc1OC
98. CNC(=O)c1c(NC(=O)Cc2coc3cc(C)ccc23)sc2c1CCCC2
99. Fc1ccc(-n2c(-c3ccncc3)n[nH]c2=S)cc1
100. N#CC1=Cc2ccccc2C2NN3C(C#N)=Cc4ccccc4C3NN12 (stereo unspecified)
compound no.,96,97,98,99,100
CDC25B CDK2 inh,-1.74,-1.38,-0.86,-0.9,-2.33
HIV TAR-Tat,1.82,-1.45,-0.27,.,.

Assay outcomes deposited in PubChem by Center for Chemical Genomics, University of Michigan.
